DUX4 inh = blocks DUX4-driven transcriptional activation; activity change, negative = inhibition, % (no concentration beside the values); 37,000 compounds, 0.8% hits; 293T-iDUX4 ZSCAN4-Gaussia luciferase reporter, 24 h; hits give low values;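 active = -10% or lower and over 25 points stronger than a control reporter; inconclusive = -10% or lower with a smaller gap; inactive = above -10%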;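 note: 0% = median of neutral control wells and -100% = median of positive control wells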
DUX4 inh difference = further read-out of DUX4 inh, marked with its call; Gaussia minus Italica difference, %; measured here: selective DUX4 reporter inhibition;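 worked out from the two reporters; negative = selective loss of the DUX4 reporter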
DUX4 inh control = second read-out of DUX4 inh, no call of its own (marks repeat the call); activity change, negative = inhibition, %; measured here: Italica tet-on control reporter;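 0 = neutral control and -100 = positive control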
Active calls of the source: *; u = inconclusive; x = not tested or not shown.

DUX4 inh | DUX4 inh difference | DUX4 inh control | SMILES
-1 | -10 | 8.8 | CCN1[C@@H]2c3ccc(-c4ccccc4)c(=O)n3C[C@H]1[C@H](CO)[C@H]2C(=O)NCc1ccccc1
7 | 10 | -3.6 | COc1ccc2c3c([nH]c2c1)[C@@H](CO)NCC31CN(S(=O)(=O)c2ccccc2)C1
-2 | 0 | -1.5 | C[C@@H]1CN([C@H](C)CO)C(=O)c2cc(NC(=O)Cn3cnnn3)ccc2O[C@H]1CN(C)C(=O)Nc1ccc2c(c1)OCO2
5 | 3 | 1.9 | CCCNC(=O)N[C@H]1C=C[C@H](CC(=O)NCCc2ccccc2)O[C@@H]1CO
-5 | -2 | -2.6 | COc1ccccc1NC(=O)N[C@@H]1CC[C@@H](CCNS(=O)(=O)c2ccc(Cl)cc2)O[C@@H]1CO
0 | -2 | 2.7 | COc1ccc(C#Cc2cnc3c(c2)C(=O)N([C@@H](C)CO)C[C@H](C)[C@H](CN(C)CC2CC2)O3)cc1
2 | -5 | 6.7 | C[C@H](CO)N1C[C@H](C)[C@H](CN(C)C(=O)Nc2ccc3c(c2)OCO3)OCCCC[C@H](C)Oc2ccc(NC(=O)CCCCCC(=O)Nc3ccccc3N)cc2C1=O
-8 | -3 | -4.3 | O=C([C@@H]1[C@@H](CO)[C@@H]2Cn3c(ccc(C4=CCCC4)c3=O)[C@@H]2N1CC1CC1)N1CCCCC1
5 | 8 | -2.2 | CCOC(=O)N(C)C[C@@H]1OCc2ccccc2-c2c(n(C)c3ccccc23)C(=O)N([C@H](C)CO)C[C@H]1C
7 | 7 | 0.4 | C[C@H]1CN([C@@H](C)CO)C(=O)CCCn2cc(nn2)CO[C@H]1CN(C)S(=O)(=O)c1cccc(C#N)c1

Reprinted at random: four entries already listed, in no set order.
DUX4 inh | DUX4 inh difference | DUX4 inh control | SMILES
7 | 10 | -3.6 | COc1ccc2c3c([nH]c2c1)[C@@H](CO)NCC31CN(S(=O)(=O)c2ccccc2)C1
-2 | 0 | -1.5 | C[C@@H]1CN([C@H](C)CO)C(=O)c2cc(NC(=O)Cn3cnnn3)ccc2O[C@H]1CN(C)C(=O)Nc1ccc2c(c1)OCO2
-8 | -3 | -4.3 | O=C([C@@H]1[C@@H](CO)[C@@H]2Cn3c(ccc(C4=CCCC4)c3=O)[C@@H]2N1CC1CC1)N1CCCCC1
7 | 7 | 0.4 | C[C@H]1CN([C@@H](C)CO)C(=O)CCCn2cc(nn2)CO[C@H]1CN(C)S(=O)(=O)c1cccc(C#N)c1

Back to the main list, starting 2 compounds before the break.
DUX4 inh | DUX4 inh difference | DUX4 inh control | SMILES
5 | 8 | -2.2 | CCOC(=O)N(C)C[C@@H]1OCc2ccccc2-c2c(n(C)c3ccccc23)C(=O)N([C@H](C)CO)C[C@H]1C
7 | 7 | 0.4 | C[C@H]1CN([C@@H](C)CO)C(=O)CCCn2cc(nn2)CO[C@H]1CN(C)S(=O)(=O)c1cccc(C#N)c1
12 | 8 | 4.2 | C[C@H]1CN([C@@H](C)CO)C(=O)CCCn2cc(nn2)CO[C@H]1CN(C)S(=O)(=O)c1ccc2c(c1)OCCCO2
2 | 3 | -1.1 | CCN1[C@H](C(=O)NCc2ccc(F)cc2)[C@@H](CO)[C@@H]2Cn3c(ccc(-c4ccccc4OC)c3=O)[C@@H]21
-3 | -7 | 3.9 | CCS(=O)(=O)Nc1ccc2c(c1)C(=O)N(C)[C@@H]1CC[C@@H](CC(=O)NC)O[C@H]1CO2
-3 | -5 | 2.0 | COc1ccc(NC(=O)N(C)C[C@H]2Oc3ccc(NC(=O)C4CCCCC4)cc3CC(=O)N([C@H](C)CO)C[C@H]2C)cc1
-1 | -2 | 1.3 | CN1[C@@H]2c3ccc(-c4ccccc4)c(=O)n3C[C@H]1[C@H](CO)[C@H]2C(=O)NCC1CC1
-3 | 0 | -2.7 | COc1ccccc1-c1ccc([C@H]2[C@@H](CO)N(C(=O)C3CCCCC3)[C@H]2C#N)cc1
-1 | -3 | 2.1 | COc1cccc(-c2ccc([C@H]3[C@H](C#N)N(C(=O)Cc4ccncc4)[C@H]3CO)cc2)c1
7 | -1 | 7.9 | O=C1CN(Cc2ccc(F)cc2)C[C@H]2[C@H](c3ccc(Br)cc3)[C@@H](CO)N12
5 | 0 | 4.5 | COc1ccc2c3c([nH]c2c1)[C@H](CO)N(C(=O)C1CCCCC1)CC31CCN(S(C)(=O)=O)CC1
u | x | x | OC[C@H]1[C@@H](c2ccc(C#CC3CCCC3)cc2)[C@@H]2CN(CCC(F)(F)F)CCCCN12
2 | 2 | 0.1 | COc1ccccc1-c1cccc(-c2nc(C(=O)N3CCOCC3)cc3c2[C@@H](CCO)N([S@](=O)C(C)(C)C)C3)c1
2 | -1 | 3.2 | CCCC(=O)Nc1ccc2c(c1)C(=O)N(C)[C@@H]1CC[C@@H](CC(=O)NCCN3CCCCC3)O[C@H]1CO2
4 | -1 | 5.4 | CC(C)[C@H]1COCc2cn(nn2)CCC[C@H](C)C(=O)N1
1 | 0 | 1.0 | C[C@@H]1CN([C@H](C)CO)C(=O)c2cc(NC(=O)NC3CCCCC3)ccc2O[C@@H]1CN(C)Cc1ccc(C(=O)Nc2ccccc2N)cc1
3 | 6 | -2.5 | CCC(=O)N1CC2(C1)[C@H](c1ccccc1)[C@@H](CO)N2Cc1ccccc1F
10 | 8 | 1.6 | CCC(=O)Nc1ccc2c(c1)C(=O)N(C)C[C@@H](OC)[C@H](C)CN(C(=O)COC)[C@@H](C)CO2
-6 | -3 | -2.4 | CCCN1C[C@@H](C)[C@@H](OC)CN(C)C(=O)c2cc(NC(=O)NC3CCCCC3)ccc2OC[C@@H]1C
8 | 8 | 0.6 | C[C@H]1CN([C@@H](C)CO)C(=O)CCCn2nncc2CO[C@H]1CN(C)C(=O)c1cc(-c2ccccc2)on1
1 | -1 | 2.2 | CO[C@@H]1CN(C)C(=O)c2ccc(NC(C)=O)cc2OC[C@@H](C)N(C(=O)C2CCOCC2)C[C@H]1C
5 | 0 | 5.6 | O=S(=O)(c1ccccc1)N1CCCCN2[C@@H](CO)[C@@H](c3ccc(-c4ccccc4)cc3)[C@@H]2C1
5 | 7 | -1.9 | CCCN1[C@H](C(=O)NCC)[C@@H](CO)[C@@H]2Cn3c(ccc(-c4ccc(C(=O)N(C)C)cc4)c3=O)[C@@H]21
u | x | x | COc1cccc(S(=O)(=O)N2CCCCN3[C@H](CO)[C@@H](c4ccc(C#CC5CC5)cc4)[C@H]3C2)c1
0 | -2 | 2.9 | O=C(c1ccc2c(c1)OCO2)N1C[C@@H]2[C@H](c3ccccc31)[C@H](CO)N2C(=O)CC1CC1
u | x | x | N#Cc1ccc(-c2ccc([C@@H]3[C@@H]4CN(C(=O)Nc5ccc6c(c5)OCO6)C[C@H]3N4)cc2)cc1
2 | 2 | 0.2 | OC[C@H]1[C@@H]2c3ccccc3NC[C@@H]2N1CC1CCOCC1
3 | 3 | -0.7 | CC(=O)N(C)C[C@@H]1Oc2cc(C#Cc3ccc(F)cc3)ccc2S(=O)(=O)N([C@H](C)CO)C[C@H]1C
9 | 4 | 4.8 | CN(C)C(=O)c1cccc(-c2ccccc2[C@H]2[C@@H](C#N)N(C(=O)C3CCC3)[C@@H]2CO)c1
-1 | 5 | -5.5 | O=C(C[C@H]1C[C@H]2c3cc(NC(=O)Nc4ccccc4F)ccc3O[C@H]2[C@H](CO)O1)NCc1ccccn1
4 | -5 | 9.1 | CNC[C@H]1OCc2ccccc2-c2ccccc2C(=O)N([C@H](C)CO)C[C@H]1C
-1 | -2 | 1.5 | CN1C(=O)c2cc(NC(=O)c3cccc(C(F)(F)F)c3)ccc2OC[C@H]2O[C@H](CC(=O)NCCN3CCCC3)CC[C@H]21
-8 | -2 | -6.2 | COc1ccc(S(=O)(=O)N2CCCCN3[C@@H](CO)[C@H](c4ccc(C#CC(C)C)cc4)[C@@H]3C2)cc1
1 | 0 | 0.3 | C/C=C/c1ccc2c(c1)O[C@H](CN(C)C(=O)c1cccc(F)c1)[C@H](C)CN([C@@H](C)CO)S2(=O)=O
-1 | -9 | 7.2 | O=C(C[C@H]1CC[C@H]2[C@@H](COC[C@@H](O)CN2Cc2ccc3c(c2)OCO3)O1)N1CCOCC1
4 | 8 | -4.0 | CC=Cc1ccc2n(c1=O)C[C@H]1[C@H](CO)[C@@H](C(=O)NCCC)[C@@H]2N1Cc1ccccc1 (mixture of isomers)
u | x | x | COc1ccc2c3c(n(C)c2c1)[C@H](CO)NCC31CN(Cc2ccc(-c3ccccn3)cc2)C1
u | x | x | COc1ccc2c3c([nH]c2c1)[C@@H](CO)N(C)CC31CCN(C(=O)c2ccccc2F)CC1
25 | 31 | -5.4 | OC[C@@H]1[C@@H](c2ccc(-c3cccnc3)cc2)[C@@H]2CN(CC3CC3)CCCCN12
-1 | -1 | 0.3 | CCc1cnc(N2[C@H](C#N)[C@@H](c3ccc(C4=CCCCC4)cc3)[C@H]2CO)s1
u | x | x | COc1cccc(-c2ccc3c(c2)[C@H]2[C@H](CCN2C(=O)c2ccc(F)cc2)[C@@H](CO)N3)c1
0 | 29 | -29 | COc1cccc(NC(=O)N2CC[C@@H]3[C@H]2c2cc(-c4cccc(OC)c4)ccc2N(C)[C@H]3CO)c1
3 | -5 | 7.8 | O=C(c1ccc(F)cc1)N1CC[C@@H]2[C@H]1c1cc(C#Cc3ccc(F)cc3)ccc1N[C@@H]2CO
u | x | x | O=C(C[C@@H]1CC[C@@H]2[C@H](COC[C@H](O)CN2Cc2nccs2)O1)N1CCC(Cc2ccccc2)CC1
3 | 6 | -3.1 | CCCNC(=O)C[C@H]1CC[C@@H]2[C@@H](COc3ccc(NC(=O)c4cccc(C(F)(F)F)c4)cc3C(=O)N2C)O1
3 | 7 | -3.8 | COC(=O)C[C@H]1C[C@@H]2c3cc(NC(=O)NC4CCCCC4)ccc3O[C@@H]2[C@H](CO)O1
u | x | x | O=C(C[C@@H]1CC[C@H]2[C@@H](COC[C@H](O)CN2Cc2ccc3c(c2)OCO3)O1)Nc1ccc(-c2ccccc2)cc1
1 | 4 | -2.4 | CNC[C@@H]1Oc2ccc(NS(=O)(=O)c3cn(C)cn3)cc2CC(=O)N([C@H](C)CO)C[C@@H]1C
-2 | -10 | 7.2 | CO[C@H]1CC[C@H]2CCOc3ccc(C#N)cc3C(=O)N(C)[C@@H](C)C(=O)N(C)C[C@H]1O2
-2 | 0 | -1.9 | C/C=C/c1cnc2c(c1)C(=O)N([C@@H](C)CO)C[C@@H](C)[C@@H](CN(C)S(=O)(=O)c1ccc(OC)cc1)O2
-9 | -6 | -3.7 | O=C(CN1CCOCC1)N1CCCCN2[C@@H](CO)[C@@H](c3ccc(C#Cc4ccccc4F)cc3)[C@@H]2C1
5 | 1 | 3.2 | CO[C@@H]1CN(C)C(=O)c2ccc(NC(=O)C3CC3)cc2OC[C@H](C)N(C(=O)c2ccccc2F)C[C@H]1C

Following part:
DUX4 inh | DUX4 inh difference | DUX4 inh control | SMILES
5 | 3 | 1.7 | CN1C(=O)c2cc(NC(=O)C3CCOCC3)ccc2OC[C@@H]2O[C@H](CC(=O)NCCc3ccncc3)CC[C@@H]21
3 | 0 | 3.0 | CCC(=O)N1[C@@H](CO)[C@@H]2c3ccccc3N(S(=O)(=O)c3ccccc3C)C[C@@H]21
u | x | x | OC[C@@H]1[C@@H](c2ccc(C#Cc3cccnc3)cc2)[C@@H]2CN(Cc3ccccc3F)CCCCN12
7 | 0 | 7.0 | O=C(Nc1cccc(F)c1)N1CC(=O)N2[C@H](CO)[C@@H](c3ccc(Br)cc3)[C@H]2C1
1 | -2 | 2.7 | CCCNC(=O)[C@H]1[C@H](CO)[C@H]2Cn3c(cccc3=O)[C@@H]1N2CCC(F)(F)F
4 | -1 | 5.9 | O=C(C1CCOCC1)N1CC(=O)N2[C@@H](CO)[C@H](c3ccc(C4=CCCC4)cc3)[C@@H]2C1
0 | -1 | 0.7 | COc1ccc2c3c([nH]c2c1)[C@@H](CO)N(C(=O)C1CCCCC1)CC31CN(C(=O)c2ccncc2)C1
3 | -4 | 6.7 | COC(=O)C[C@@H]1C[C@@H]2c3cc(NC(=O)CC4CC4)ccc3O[C@@H]2[C@@H](CO)O1
5 | 1 | 3.8 | CNC(=O)C[C@@H]1CC[C@@H]2[C@H](COc3ccc(NC(=O)c4ccccc4F)cc3C(=O)N2C)O1
12 | -5 | 17 | COc1ccc2c3c(n(C)c2c1)[C@@H](CO)N(S(=O)(=O)c1cn(C)cn1)CC31CCN(C)CC1
2 | 31 | -29 | CC(C)NC(=O)N1CCCCN2[C@H](C1)[C@H](c1ccc(C#Cc3ccccc3F)cc1)[C@@H]2CO
u | x | x | CCS(=O)(=O)N1CC(=O)N2[C@H](CO)[C@@H](c3ccc(C#Cc4cccc(F)c4)cc3)[C@@H]2C1
-2 | 18 | -20 | C/C=C/c1ccc2c(c1)O[C@@H](CN(C)C(=O)Nc1ccc(OC)cc1)[C@@H](C)CN([C@@H](C)CO)S2(=O)=O
2 | 0 | 1.4 | O=C1CCCCn2nncc2COC[C@@H](Cc2ccccc2)N1
0 | -6 | 5.7 | CCCNC(=O)N(C)C[C@H]1Oc2ncc(-c3ccc(C(=O)N(C)C)cc3)cc2C(=O)N([C@@H](C)CO)C[C@@H]1C
4 | -1 | 5.6 | CC(C)COC(=O)N(C)C[C@H]1OCc2cnnn2CCCC(=O)N([C@@H](C)CO)C[C@@H]1C
-2 | -4 | 1.3 | CCCNC(=O)N(C)C[C@@H]1Oc2cc(C3=CCCC3)ccc2S(=O)(=O)N([C@@H](C)CO)C[C@@H]1C
25 | 5 | 20 | CCC(=O)N1CC2(CN(S(C)(=O)=O)C2)c2c(n(C)c3cc(OC)ccc23)[C@@H]1CO
u | x | x | Cc1ccccc1S(=O)(=O)N1C[C@@H](O)COC[C@H]2O[C@H](CC(=O)N3CCC(Cc4ccccc4)CC3)CC[C@@H]21
6 | 6 | -0.3 | O=C(C[C@@H]1C[C@@H]2c3cc(NC(=O)C4CCC4)ccc3O[C@@H]2[C@@H](CO)O1)NC1CCCC1

Screening data (PubChem BioAssay)

Some of the compounds tested; the hit share may differ from the screen's.
